CDC25B CDK2 inh: human CDC25B-CDK2/CyclinA binding inhibition. P30305+P24941. HTRF CDC25B-CDK2/CyclinA binding, anti-His/anti-Flag; hits give high values. z-score (no concentration beside the values). 94,000 compounds, 0.72% hits;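 further: score is relative to mean and SD of negative controls; strong numbers were not always called active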
HIV TAR-Tat: HIV-1 TAR-Tat binding disruption. HIV-1 TAR RNA, Tat peptide displacement FRET; hits give high values. z-score (concentration not given with the values). 100,000 compounds, 0.6% hits;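 further: score is relative to mean and SD of negative controls; some compounds called inactive have numbers as strong as hits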
Active calls of the source: *; / = not tested or not shown; & = joins results of further samples.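 How the source made its calls: active means z-score from 3 up in half or more of its runs; inactive means the rest.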 No enrichment for hits; 0.97% or so of the library scored in one or more.

Values run as follows: HIV TAR-Tat | CDC25B CDK2 inh
Cc1nc(-c2ccc(S(=O)(=O)NCc3ccc(OC(C)C)cc3)cc2)co1
    0.17 | /
Cn1c(O)c(C2=Nc3ccccc3SC(c3ccc(F)cc3)C2)c(=O)[nH]c1=O (stereo not drawn)
    0.52 | -0.92
O=C(O)C1CCN(c2ncccn2)CC1
    0.69 | 0.61
O=C(Cn1c(=O)oc2cc(S(=O)(=O)N3CCCC3)ccc21)Nc1cc(F)ccc1F
    1 | -2.2
Cc1c(C(=O)c2ccc(Cl)cc2)oc2ccc(N)cc12
    -2.2 | /
COc1cc(OC)c(N(C)C(=O)Cn2ncc3c2-c2ccccc2OC3)cc1Cl
    0.07 | -0.35
NC(=O)c1c(NC(=O)CSc2nnc3ccc4ccccc4n23)sc2c1CCCC2
    1.9 | -0.69
O=C(NC(=O)c1ccccc1F)OCc1ccc(Cl)cc1Cl
    / | -1.2
CC(c1ccccc1)n1c(CCc2ccc(O)cc2)n[nH]c1=S (stereo not drawn)
    / | -0.31
Cc1nc2c3ccccc3nc(SCC(=O)Nc3ccc(Br)cc3)n2n1
    1.7 | /
COc1ccc(-n2c(Cn3c(=O)sc4ccccc43)nnc2SCc2ccccn2)cc1
    / | -1.4
Cc1cc(S(=O)(=O)[C@H]2CS(=O)(=O)C[C@@H]2NCCCc2ccccc2)ccc1F
    -0.41 | -1.6
Cc1ccc2c(=O)cc(C(=O)N(Cc3ccc(Cl)cc3)C3CCS(=O)(=O)C3)oc2c1C (stereo not drawn)
    -0.34 | -0.29
O=C1Nc2ccccc2-c2ccccc2N1
    / | -2
CC(C)CCn1c(=O)c2ccc(C(=O)NCC(C)C)cc2n2c(=O)[nH]nc12
    1.5 | -0.46
Cc1cccc(CSc2nc3nc(C)cc(C)c3c(=O)[nH]2)c1
    3.2 | -1.6
CSc1sc(C(=O)Sc2ccc(Cl)cc2)cc1S(=O)(=O)C(C)C
    / | -1.5
CCOCCCNc1cc(N2CCC(C(=O)OCC)CC2)c2noc3c2c1C(=O)c1ccccc1-3
    5.2 | -1.8
O=C(CSc1nc2ccc([N+](=O)[O-])cc2s1)Nc1ccc2nc(SCC(=O)Nc3ccccc3F)sc2c1
    / | -3.1
Cc1ccc2c(c1)N(C(=O)N1CCC(C(=O)NC3CCCC(C)C3C)CC1)CC(C)O2 (stereo not drawn)
    1.3 | /
CC[C@H](C)C(=O)O[C@H]1C[C@H](O)C=C2C=C[C@H](C)[C@H](CC[C@@H](O)C[C@@H](O)CC(=O)O)[C@H]21
    1.4 | /
Cc1cc2c(cc1S(=O)(=O)NCCCN1CCCC(C)C1)OCC(=O)N2 (stereo not drawn)
    1.3 | /
Cn1cnnc1SCC(=O)N1N=C(c2ccc(Br)cc2)CC1c1ccc(F)cc1 (stereo not drawn)
    / | 0.85
CCCOc1ccccc1C1C=C(C(=O)O)Nc2nnnn21 (stereo not drawn)
    1.4 | /
O=C(CC1(O)C(=O)N(CCc2ccccc2)c2ccc(Cl)cc21)c1cccs1 (stereo not drawn)
    1.1 | -0.91
CCN(Cc1c(C)[nH]c2ccc(C)cc2c1=O)C1CCCCC1
    -0.69 | -0.12
CCSC1=N/C(=C\c2cc(Br)ccc2OC)C(=O)S1
    -0.1 | 1.4
O=C(CN1CCSc2ccccc21)NCc1ccccn1
    0.45 | /
C=CCN1C(=O)C(=O)c2cc(C)ccc21
    / | -0.47
COc1ccc(OCC(=O)Nc2ncn[nH]2)cc1
    0.05 | -0.87
Clc1ccc(Cc2nnc3n2N=C(c2ccccc2)CS3)cc1
    1.1 | /
CC(=O)/C=C1/N(C)c2ccccc2C1(C)C
    / | -1.6
Cc1nnc(NC(=O)CSCc2cc(=O)c3ccccc3[nH]2)s1
    -1.8 | /
O=c1cc[nH]c(=S)[nH]1
    0.28 | /
COC(=O)CN1C(=O)CSc2ccc(S(=O)(=O)Nc3ccccc3)cc21
    0.45 | /
CC1CCC(NC(=O)C2CCCN(S(=O)(=O)c3cccc4cccnc34)C2)CC1 (stereo not drawn)
    -1.7 | -1.1
CCCNC(=O)CN1C(=O)CSc2sc(CC(C)C)cc21
    1.7 | /
Cc1cc(C)cc(S(=O)(=O)c2cn(C)c3cc(N4CCC(C)CC4)c(F)cc3c2=O)c1
    -0.27 | /
CC1CCN(c2ccc(NS(=O)(=O)c3ccc4c(c3)NC(=O)CCS4)cc2)CC1
    1.9 | /
CCOc1ccc(NC(=O)CSc2nc(-c3ccco3)nc3cc(=O)[nH]n23)cc1
    0.31 | /
CCN(C(=O)Cn1ncc2c(=O)oc3ccc(C)cc3c21)c1ccc(C)c(C)c1
    1.5 | -1.8
CC1CCN(Cc2cc(Cl)c(O)c(Cl)c2)CC1
    / | -1.2
CCOc1cccc(C2c3c(oc4ccccc4c3=O)C(=O)N2c2ccccn2)c1 (stereo not drawn)
    0.95 | -1.3
Cc1sc(-c2noc(C3CC3)n2)cc1S(=O)(=O)NCC(=O)N1CCOCC1
    1.4 | /
CCCCC1=NN(C(=O)C(=O)OCC)C(O)(C(F)(F)F)C1 (stereo not drawn)
    / | -1.1
Cc1cccc(OCc2cc(=O)n3c4c(sc3n2)CCCC4)c1C
    -1.1 | -0.98
Oc1ccccc1-c1nc(-c2ccccc2)no1
    1.7 | -1.2
CCC(=O)Nc1nc2c(s1)CC(C(C)(C)C)CC2 (stereo not drawn)
    0.69 | 1.5
CCCCSc1nc(C)nc2c1sc1nc3c(cc12)COC(C)(C)C3
    -1.4 | /
COc1ccc(C2CC(=O)Nc3c2cnn3-c2nc3ccccc3s2)cc1OC (stereo not drawn)
    2.1 | /

Next structures:
Values run as follows: HIV TAR-Tat | CDC25B CDK2 inh
Cc1nc2ccccc2c2c1C(=O)CC(c1ccc(F)cc1)=N2
    -3 | -2.6
COCCOC(=O)C1=C(C)NC(C)=C(C(=O)OC(C)C)C1c1cccc([N+](=O)[O-])c1 (stereo not drawn)
    0.8&1.4 | -1.2
CCOC(=O)c1cc(C)n(Cc2c(Cl)cccc2Cl)n1
    / | -2
Cc1ccc(SCc2nc(-c3ccc(C(=O)NC4CC4)cc3)oc2C)cc1
    1.4 | /
O=c1c2ccccc2ncn1Cc1noc(-c2ccccc2Br)n1
    1.1 | /
COc1cc(Cl)c(NS(=O)(=O)c2ccc(-c3coc(C)n3)cc2)c(OC)c1
    0.03 | /
CCSc1nc(-c2cccs2)cc(C(F)(F)F)c1C#N
    / | -0.27
CC(C)Cc1cc2c(s1)SCC(=O)N2CC(=O)NCc1ccccn1
    0.07 | /
CC1=C(C(=O)N2CCN(c3ccc(F)cc3)CC2)C2(CCCCC2)OC1=O
    0.83 | /
CCCC(=O)OCc1cc(=O)n2oc(C)cc2n1
    0.22 | /
COC(=O)c1c(C)nn(C)c1-c1ccno1
    / | -1.1
COc1cc(NS(=O)(=O)c2cc(-c3cc(C)no3)ccc2OC)cc(OC)c1
    0.73 | /
Clc1ccc(OCCn2cnc3ccccc32)cc1
    0.65 | -2.1
Cc1sc2ncn(CC(=O)NC3CCCC(C)C3C)c(=O)c2c1S(=O)(=O)N1CCC(C)CC1 (stereo not drawn)
    0.91 | 2.2
Cc1nc2c(-c3ccccc3)c(C)nn2c(C)c1CCC(=O)N1CCc2ccccc21
    0.05 | 1.1
O=C(NCc1ccc2c(c1)OCO2)C1CCN(c2ncnc3c2nc2n3CCCCC2)CC1
    -0.81 | /
CCN(CC)CCNc1nc2ccc(C(=O)c3ccccc3)cc2n2c(C)nnc12
    -0.63 | /
CN1C(=O)C(O)(CC(=O)c2ccccc2)c2ccccc21 (stereo not drawn)
    -0.69 | 0.75
Cc1cccc(NC(c2ccc3c(c2)OCO3)c2ccc3cccnc3c2O)n1 (stereo not drawn)
    -0.75 | 1
O=c1onc2cnc3ccccc3n12
    / | 6.4
OC(CN1CCC2(CC1)OCCO2)c1ccc2cc[nH]c2c1 (stereo not drawn)
    / | -2.5
COc1ccc(OC)c(NC(=O)CCCc2nnc3n(C)c(=O)c4sccc4n23)c1
    0.46 | /
Cc1cc(C)cc(Nc2c3c(nc4nncn24)CCC3)c1
    -0.16 | -0.05
C[C@H]1[C@H](OC(=O)CCC(=O)O)O[C@@H]2OC3(C)CC[C@H]4[C@H](C)CC[C@@H]1[C@@]24OO3
    3 | /
COC(=O)c1nc2n(n1)C(c1ccc(OC)c(OC)c1)C(C(=O)OC1CCCCC1)=C(C)N2 (stereo not drawn)
    / | 1.1
Cc1nn(-c2nc3ccccc3o2)c2c1C(c1ccc(F)cc1)CC(=O)N2 (stereo not drawn)
    1.2 | /
CCCC12CN(S(=O)(=O)c3ccccc3)CC(C)(CN(S(=O)(=O)c3ccccc3)C1)C2=O
    / | 0.21
CSc1cc(-c2ccco2)[nH]c(=O)c1C#N
    / | -1.4
CSc1nnc2c(n1)OC(c1ccc(C)o1)N(C(C)=O)c1ccccc1-2 (stereo not drawn)
    -1.4 | -0.15
CCc1ccc(NS(=O)(=O)c2c(C)[nH]c(=O)[nH]c2=O)cc1
    0.46 | /
N=C1C(c2nc3ccccc3[nH]2)=C(O)CN1Cc1ccc(Cl)cc1
    0.32 | -1.1
CCOC(=O)N1CCN(c2nc(-c3ccc(F)cc3)cc(C(F)(F)F)n2)CC1
    0.7 | -1.4
Cc1cc(=O)n(C(C)C(=O)Nc2ccc3c(c2)OCCO3)c2c1c(C)nn2-c1ccccc1 (stereo not drawn)
    0.05 | /
CCCSc1nnc(NC(=O)c2nc(SC)ncc2Cl)s1
    1.4 | -1.6
CSc1nnc(C)c(=O)[nH]1
    / | -0.57
Cc1ccn2c(=O)c(C(=O)NCC3CCCO3)c(O)nc2c1 (stereo not drawn)
    1.1 | -2.3
Cc1ccc(Nc2cc(N3CCCC3)ncn2)cc1Cl
    3.2 | -1.4
Cc1nn(-c2ccccc2)c(-n2cccc2)c1CNC(=O)Nc1ccccc1
    0.21 | -2.6
Cc1cc(NC(=O)CCC2COc3ccccc3O2)no1 (stereo not drawn)
    -1.1 | -1.4
Nc1c(C(=O)Nc2ccc(F)cc2)sc2nc(-c3cccs3)cc(C(F)(F)F)c12
    -9.1 | -0.22
Cc1ccc(C(=O)N2CCN(c3cc(=O)n4nc(-c5ccc(C)cc5)sc4n3)CC2)cc1
    0.66 | /
CCc1nnc2sc(COc3ccc(C)cc3)nn12
    0.16 | -0.72
Cc1ccccc1-c1nc(CN2CCN(S(=O)(=O)N(C)C)CC2)c(C)o1
    0.05 | /
Cc1ccc2c(c1)NC(SCC(=O)N1CCCC1)=NS2(=O)=O
    0.21 | /
Cc1cc(Nc2ccccc2F)nc(C)n1
    0.76 | -0.63
CCc1ccc(OCc2nc3ccc(C)cc3[nH]2)cc1
    2.2 | -0.41
CCOC(=O)c1c(NC(=O)c2nn(-c3ccc(Cl)cc3)ccc2=O)sc2c1CCC2
    1 | -0.78
O=C(CN1C(=O)c2cccnc2Sc2ccccc21)Nc1ccccc1Br
    -0.4 | /
COC(=O)/C=C1\SC(Cc2ccc(Cl)cc2)=NC1=O
    / | -1.2
CCOC(=O)C1CCCN(C(=O)C2CCN(c3nn4c(=O)c5c(nc4s3)CCCC5)CC2)C1 (stereo not drawn)
    2.8 | /

Continued.
Values run as follows: HIV TAR-Tat | CDC25B CDK2 inh
O=C(NCc1ccc(F)cc1)N1CCCC1c1cccs1 (stereo not drawn)
    -0.38 | -2.5
COc1ccc(C(O)(c2ccccc2OC)C(CN2CCCC2)c2ccccc2)cc1 (stereo not drawn)
    0.54 | -0.95
O=C1N(Cc2cccnc2)c2ccccc2S(=O)(=O)N1c1cc(F)ccc1F
    1.1 | /
CSc1ccc(CNC(=O)c2ccc3c(c2)nc2n3CCCC2)cc1
    0.42 | /
Cc1c(C(=O)N(C)C2CCCCC2)sc2nc3n(c(=O)c12)CCCCC3
    1.8 | /
CC(=O)Nc1c(Cl)cc(Cl)c2cccnc12
    / | -1.1
COC(=O)c1c(SCC(=O)NC2CCCCC2)[nH]c2ccccc2c1=O
    -2.9 | /
Cc1cc(C)c(S(=O)(=O)NCC(c2ccc(N(C)C)cc2)N(C)C)c(C)c1 (stereo not drawn)
    -1.5 | /
Cc1cc(C)c(C#N)c(Sc2ncc(C#N)c(N)n2)n1
    / | -1.7
O=C1CN(S(=O)(=O)c2ccc3c(c2)OCCO3)c2ccccc2N1
    1 | -1.9
COc1cccc2c(=O)c(NC(=O)NCCCn3ccnc3)c[nH]c12
    -1.1 | -2.7
CCCCCNc1ncnc2c1sc1nc3c(cc12)COC(C)(C)C3
    0.54 | -1.2
CC(=O)N1CCc2cc(S(=O)(=O)C(C)CC(=O)Nc3ccc(F)c(Cl)c3)ccc21 (stereo not drawn)
    -0.48 | /
COc1ccc(-n2ncc3c(NC4CCCC4)ncnc32)cc1
    3.2 | /
CC1CC(C)CN(CC2CCN(C(=O)NC3CCCC3)CC2)C1 (stereo not drawn)
    2.5 | /
C=CCOC(=O)C1=C(C)NC2=C(C(=O)CCC2)C1c1ccccc1OCC (stereo not drawn)
    1.1 | -0.61
CCN(CC)S(=O)(=O)c1c(C)nn(S(=O)(=O)c2ccc(OC)cc2)c1C
    0.46 | /

Seven structures from above, sorted by length of the SMILES, lowest first.
Values run as follows: HIV TAR-Tat | CDC25B CDK2 inh
COc1ccc(-n2ncc3c(NC4CCCC4)ncnc32)cc1
    3.2 | /
CC1CC(C)CN(CC2CCN(C(=O)NC3CCCC3)CC2)C1 (stereo not drawn)
    2.5 | /
CCCCCNc1ncnc2c1sc1nc3c(cc12)COC(C)(C)C3
    0.54 | -1.2
COc1cccc2c(=O)c(NC(=O)NCCCn3ccnc3)c[nH]c12
    -1.1 | -2.7
C=CCOC(=O)C1=C(C)NC2=C(C(=O)CCC2)C1c1ccccc1OCC (stereo not drawn)
    1.1 | -0.61
CCN(CC)S(=O)(=O)c1c(C)nn(S(=O)(=O)c2ccc(OC)cc2)c1C
    0.46 | /
CC(=O)N1CCc2cc(S(=O)(=O)C(C)CC(=O)Nc3ccc(F)c(Cl)c3)ccc21 (stereo not drawn)
    -0.48 | /
